Polio RdRp inh: poliovirus RNA polymerase inhibition | P03300 | poliovirus polymerase elongation, fluorescence polarization; stronger effect = lower value | % elongation, % (compound at 16.7 µg/mL) | hit rate 0.66% among 150,000; in the data active means % elongation below about 90%; further: some results filed as inactive read as strong as hits
Target sequence (P03300 1749-2209 limits assumed): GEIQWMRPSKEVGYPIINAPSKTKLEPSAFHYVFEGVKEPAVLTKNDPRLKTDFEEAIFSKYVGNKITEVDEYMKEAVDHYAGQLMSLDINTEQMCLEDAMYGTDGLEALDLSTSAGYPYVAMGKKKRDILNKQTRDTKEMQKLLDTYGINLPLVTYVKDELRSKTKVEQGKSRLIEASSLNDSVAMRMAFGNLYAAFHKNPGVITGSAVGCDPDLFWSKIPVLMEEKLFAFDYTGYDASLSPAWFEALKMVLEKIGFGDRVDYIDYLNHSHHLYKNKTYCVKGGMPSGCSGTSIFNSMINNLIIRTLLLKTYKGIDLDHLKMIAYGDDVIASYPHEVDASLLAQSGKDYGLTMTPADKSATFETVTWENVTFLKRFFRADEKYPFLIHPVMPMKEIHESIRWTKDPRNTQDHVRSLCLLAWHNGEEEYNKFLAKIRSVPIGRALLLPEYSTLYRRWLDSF
Polio RdRp inh intensity: recorded beside Polio RdRp inh, whose call it bears; % elongation; measured here: total intensity read-out; formula for this scale not given here;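 total fluorescence in place of polarization; lower means less elongation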
Active calls of the source: *. Some of the compounds tested, so the mix of outcomes need not match the whole.

SMILES | Polio RdRp inh | Polio RdRp inh intensity
CCOc1ccc(NC(=O)C2CCCN(S(=O)(=O)c3cccc4nonc34)C2)cc1 (stereo not given) | 107 | 110
O=C(c1ccc2c(c1)N(Cc1ccc(Cl)cc1)C(=O)c1ccccc1S2(=O)=O)N1CCCCCC1 | 107 | 110
CC(C)c1ccc(N2C(=O)CSC23C(=O)N(Cc2ccccc2F)c2ccccc23)cc1 (stereo not given) | 106 | 88
COc1ccc(CNC(=O)CSc2nc(-c3ccc(OC)c(OC)c3)cc(C(F)(F)F)n2)cc1 | 102 | 102
CN(C)c1ccc(-c2nc(-c3ccccn3)no2)cc1[N+](=O)[O-] | 108 | 107
COc1ccc(-c2nc3ccccc3o2)cc1NC(=O)c1cc(Br)ccc1OC | 109 | 111
CSc1cccc(NC(=O)C2CCN(S(=O)(=O)c3ccc4c(c3)CCCN4C(=O)C3CCC3)CC2)c1 | 106 | 111
CCc1sc(Nc2cccc(Cl)c2)nc1-c1cc2cccc(OC)c2oc1=O | 109 | 104
CCOc1ccc(C(=O)c2cn(CC(=O)Nc3ccc4c(c3)OCO4)c3ccc(OC)cc3c2=O)cc1 | 111 | 110
CCc1cccc(C)c1NC(=O)CN1C(=O)c2c(c3ccccc3n2C)C1c1ccc(OC)cc1 (stereo not given) | 104 | 106
CC(C)Oc1ccc(NC(=O)c2cc3ccccc3o2)cc1 | 106 | 104
O=C(Nc1ccc(Br)cc1)c1cc(-c2cccs2)nc2ccccc12 | 109 | 113
O=S(=O)(c1ccc(Cl)cc1)N1CCC(c2ccncc2)CC1 | 107 | 109
O=C(/C=C/c1ccc(F)cc1)Nc1nc2n(n1)C(c1ccc(Cl)cc1)C=C(c1ccccc1)N2 (stereo not given) | 113 | 117
CC(C)NC(=O)c1nn(-c2ccccc2F)nc1CO | 104 | 99
COC(=O)c1c(C)oc2ccc(N(C(=O)c3ccncc3)S(=O)(=O)c3cc(C)ccc3C)cc12 | 99 | 102
Cc1ccn2c(=O)c(C(=O)NCCc3ccc(S(N)(=O)=O)cc3)c(O)nc2c1 | 102 | 109
O=C(CCS(=O)(=O)c1cc(Br)cc2c1N(C(=O)C1CC1)CC2)N1CCN(c2cccc(Cl)c2)CC1 | 105 | 106
CCC(C)(C)NS(=O)(=O)c1cc(-c2cc(C)no2)ccc1C | 101 | 100
COC(=O)c1sc(-c2ccccc2)cc1NC(=O)c1cccc(F)c1 | 106 | 108
COc1ccc2[nH]cc(CCNC(=O)c3cnn(-c4ccc(C)cc4)c3C3CCN(C(=O)OC(C)(C)C)CC3)c2c1 | 109 | 109
COc1ccccc1-c1nc2c(c(SCC(=O)Nc3ccccc3F)n1)Cc1c(CO)cnc(C)c1O2 | 106 | 105
CCOC(=O)N1CCc2c(sc3c2c(=O)n(Cc2ccccc2)c(=O)n3CC(=O)Nc2c(C)cccc2C)C1 | 101 | 106
CCN1CCOC(=O)C1CC(=O)Nc1ccc(C)c(Cl)c1 (stereo not given) | 101 | 104
CCN(c1ccccc1)S(=O)(=O)c1nnc(NC(=O)c2cccs2)s1 | 110 | 112
Next section
SMILES | Polio RdRp inh | Polio RdRp inh intensity
CCc1cccc(NC(=O)C(c2ccccc2)N2Cc3ccccc3C2=O)c1 (stereo not given) | 107 | 111
COc1ccc(/C=C(\C#N)c2nc3ccccc3n2C)c(OC)c1 | 102 | 105
CNC(=O)c1cc(Nc2nnc(-c3ccc(O)cc3)c3ccccc23)ccc1OC | 107 | 104
O=C(NCc1cccc(Cl)c1)c1cc2ccc3cccnc3c2[nH]1 | 99 | 103
CC(C)CCN(Cc1ccco1)C(=O)Cn1ncc2c([nH]c3ccccc32)c1=O | 98 | 102
O=C(NCc1ccc(F)cc1)c1ccc2c(O)c(S(=O)(=O)c3ccccc3)c(=O)[nH]c2c1 | 112 | 109
CCc1nn(CC(=O)NCc2ccco2)c(=O)c2cc3cc(F)ccc3n12 | 109 | 107
CC(C)(C)C(=O)NCCc1csc2nc(-c3ccc(F)cc3)nn12 | 114 | 113
O=C(Nc1ccc(C(=O)OCc2cc(=O)n3nc(C4CC4)sc3n2)cc1)c1ccc(F)cc1 | 105 | 109
CCOc1ccc(Sc2cc(C(=O)NCCc3ccc(OC)c(OC)c3)c3ccccc3n2)cc1 | 110 | 112
O=C(c1ccc2c(c1)N(Cc1ccc(F)cc1)C(=O)c1ccccc1S2(=O)=O)N1CCN(c2ccccn2)CC1 | 105 | 99
COc1ccccc1CNC(=O)CCCn1nc(C)c2sc3ccccc3c2c1=O | 112 | 105
COc1ccccc1N1CCN(C(=O)c2cc(-c3ccc(C)c(F)c3)on2)CC1 | 106 | 110
CCOc1cccc2cc(-c3nc4sc5c(c4c(=O)[nH]3)CCC(C(C)(C)C)C5)c(=O)oc12 (stereo not given) | 105 | 119
CCN1CCN(C(=O)Cn2c(-c3cccs3)cc3cc(Cl)ccc32)CC1 | 105 | 105
CC(C)c1ccc(C(=O)CC2(O)C(=O)N(CCc3ccccc3)c3ccc(Cl)cc32)cc1 (stereo not given) | 107 | 109
CC(=O)Nc1ccc(-n2cc3c(c2-c2ccc(C)cc2)c(=O)n(C)c(=O)n3C)cc1 | 102 | 107
CCOc1ccccc1/C=C/c1onc(C)c1S(=O)(=O)N1CCC(C(=O)N2CCCCC2)CC1 | 107 | 109
COc1ccccc1N1CCN(c2nc3ccc(C)cc3n3nnnc23)CC1 | 114 | 109
CN1CCN(C(=O)c2cnn(-c3ccccc3)c2C2CCN(C(=O)OC(C)(C)C)CC2)CC1 | 103 | 97
COc1ccc(NC(=O)c2sc3nc(C)c(C(=O)Nc4ccc(Cl)cc4)c(-c4ccc(Br)cc4)c3c2N)cc1 | 102 | 98
COc1ccc(C2=NC3(CCCCCC3)N(CC(=O)Nc3ccc(C)c(C)c3)C2=O)cc1 | 112 | 113
COC(=O)c1c(NC(=O)COc2cccc(C(F)(F)F)c2)sc2c1CCCC2 | 99 | 100
Cc1cccc(-n2c(/C=C/c3c(C)[nH]c4ccccc34)nc3ccccc3c2=O)c1 | 108 | 103
CC(NC(=O)CSc1n[nH]c(-c2ccccc2Cl)n1)c1nc2ccccc2n1C (stereo not given) | 98 | 98
Later entries:
SMILES | Polio RdRp inh | Polio RdRp inh intensity
Cc1ccc(S(=O)(=O)NCC2CCC(C(=O)NCCCOC(C)C)CC2)cc1 (stereo not given) | 102 | 100
CCc1ccccc1OCCSc1nc(-c2cccs2)nc2cc(=O)[nH]n12 | 100 | 105
CCN(CC)C(=O)c1sc2c(c1C)c(=O)n(Cc1ccccc1)c(=O)n2CC(=O)Nc1ccc(OC)cc1 | 102 | 110
O=C(COc1ccc(F)cc1)Nc1nnc(SCc2cc(=O)n3ccccc3n2)s1 | 105 | 108
COc1cccc(N2CCN(C(=O)c3cc4c(s3)-c3ccccc3OC4)CC2)c1 | 108 | 107
COc1cccc(C(c2sc3nc(-c4ccco4)nn3c2O)N2CCC3(CC2)OCCO3)c1 (stereo not given) | 108 | 110
Cc1cccc(NC(=O)C2CCN(S(=O)(=O)c3ccc4c(c3)CCCN4C(=O)C3CCC3)CC2)c1 | 109 | 112
CCOc1ccc(NC(=O)c2nc3nc(C)cc(C(F)F)n3n2)cc1 | 104 | 109
O=C(Nc1cccc(C(=O)OCc2cc(=O)n3nc(C4CC4)sc3n2)c1)c1ccc(F)cc1 | 100 | 107
O=C(CSC1=Nc2ccccc2C2=NC(CC(=O)NC3CCCCC3)C(=O)N12)Nc1ccc(F)cc1 (stereo not given) | 102 | 107
Cc1nn2c(=O)cc(COC(=O)c3ccc(NC(=O)CCc4ccccc4)cc3)nc2s1 | 100 | 99
CCSc1ncc(Cl)c(C(=O)Nc2sc(C(C)=O)c(C)c2C(=O)OC)n1 | 114 | 113
Nc1c(C(=O)Nc2cccc(Br)c2)sc2nc3c(cc12)N1CCC3CC1 | 103 | 109
CCOC(=O)c1c(C)[nH]c(C)c1S(=O)(=O)N1CCC(C(=O)Nc2ccc(C)c(N(C)C)c2)CC1 | 107 | 101
CCc1ccc(NC(=O)c2c(C(=O)Nc3ccccc3)sc3nc(C)cc(=O)n23)cc1 | 106 | 95
CCCN(C(=O)Cn1ncc2c(=O)oc3ccccc3c21)c1cccc(C)c1 | 102 | 106
Cc1ccc(CNC(=O)Cn2c(=O)cc(C)c3c(C)nn(-c4cccc(F)c4)c32)cc1 | 105 | 109
CCC(=O)N1CCc2cc(S(=O)(=O)NC(C(=O)NCc3ccc(OC)cc3)C(C)C)ccc21 (stereo not given) | 102 | 101
O=C(CCc1ccccc1)NCc1nc2cccnc2n1Cc1ccc(F)cc1 | 106 | 111
Cc1cc(Nc2ccc(C)c(Cl)c2)n2nc(-c3ccccc3)nc2n1 | 107 | 112
COc1ccccc1-c1cc(C(=O)Nc2c(C)nn(Cc3ccc(Cl)cc3)c2C)no1 | 104 | 107
CCOC(=O)c1cc(-c2ccc(OC)cc2)n(CCC(=O)NCCc2ccc(OCC)c(OCC)c2)c1C | 100 | 101
COc1ccccc1N1CCN(C(=O)CN2C(=O)COc3ccc(S(=O)(=O)N4CCC(C)CC4)cc32)CC1 | 102 | 106
COC(=O)c1cc(C)nc2c1c(=O)nc(SCc1ccccc1F)n2C1CC1 | 107 | 113
COC(=O)c1c(-c2cccs2)csc1NC(=O)COc1ccc(C(C)C)cc1 | 70* | 75*
CCOc1ccc(C(=O)c2cn(CC(=O)Nc3ccc(F)cc3)c3cc4c(cc3c2=O)OCO4)cc1 | 107 | 109
O=C(NCc1ccc(F)cc1)c1ccc(CS(=O)Cc2ccc(Cl)cc2)o1 (stereo not given) | 103 | 101
CCc1nnc(SCc2nc(-c3cccc(C)c3)oc2C)c2cc3sc(C)cc3n12 | 110 | 109
CCOC(=O)c1c(-c2ccccc2)csc1NC(=O)c1cc(-c2ccc(C)c(F)c2)on1 | 111 | 112

Screening results: PubChem, ICCB-Longwood Screening Facility, Harvard Medical School
